Source: PubChem BioAssay (National Center for Advancing Translational Sciences (NCATS))
VDR inhibitor – vitamin D3 receptor (human) inhibition. P11473. VDR-SRC2-3 peptide fluorescence polarization, 2 h. Potency, µM, for inactives: max response, negative = inhibition, actives largely listed as inhibitors. 400,000 tested, 0.93% active. AID 504847; active = well fitted inhibition curve with a large enough effect; inconclusive = small, poorly fitted or top-dose-only effect, or another doubt; inactive = no such curve, though single readings can be large or run the other way; also: series mostly up to about 120 µM
Target sequence (P11473 whole entry, looked up): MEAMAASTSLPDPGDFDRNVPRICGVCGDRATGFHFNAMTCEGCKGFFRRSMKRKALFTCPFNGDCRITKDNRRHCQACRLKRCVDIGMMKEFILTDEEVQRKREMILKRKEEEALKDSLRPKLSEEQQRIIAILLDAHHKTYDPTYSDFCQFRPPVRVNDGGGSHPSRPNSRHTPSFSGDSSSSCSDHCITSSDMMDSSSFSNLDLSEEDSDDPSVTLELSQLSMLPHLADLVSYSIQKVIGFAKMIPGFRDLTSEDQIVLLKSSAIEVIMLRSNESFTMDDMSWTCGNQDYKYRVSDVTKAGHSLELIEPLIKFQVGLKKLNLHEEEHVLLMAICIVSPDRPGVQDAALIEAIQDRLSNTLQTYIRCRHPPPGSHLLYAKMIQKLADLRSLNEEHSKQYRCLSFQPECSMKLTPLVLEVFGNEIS
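Measured by FP: displacement of SRC2-3 coactivator peptide from VDR by library compounds, following a two-hour ambient incubation.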
An asterisk follows results filed as active; ? = inconclusive; & = joins results of further samples. % is scaled to controls: 0 for no effect and ±100 for the full control effect; potency is read from the fitted curve at half-maximal effect.

The first two compounds (preview)
structure	VDR inhibitor
COc1ccc2oc(C(=O)Nc3nnc(C)s3)c(C)c2c1	15%
COc1cccc(-c2coc3c(C)c4oc(=O)c(CCC(=O)O)c(C)c4cc23)c1	?

This part in full, repeating the preview:
structure	VDR inhibitor
COc1ccc2oc(C(=O)Nc3nnc(C)s3)c(C)c2c1	15%
COc1cccc(-c2coc3c(C)c4oc(=O)c(CCC(=O)O)c(C)c4cc23)c1	?
Cc1noc(-c2ccccc2OCC(=O)Nc2cccc([N+](=O)[O-])c2)n1	11%
COc1ccc(-n2c(=O)c(C)nc3cnc(Nc4cccc(OC)c4)nc32)cc1	4%
CCCCCOC(=O)NCC(O)c1ccccc1 (centres undefined)	7%
CCOC(=O)C(=Cc1cn(C)c2ccc(S(=O)(=O)N(C)C)cc12)C(=O)OCC	-17%
CCOC(=O)c1ccc(NC2c3ccccc3C(=O)N2c2ccccn2)cc1 (centres undefined)	-23%
O=S(=O)(Nc1cccc2cccnc12)c1ccccc1	-13%&-2%
COc1ccc(C(C)=O)cc1COC(=O)c1ccc(OCc2c(C)noc2C)cc1	-3%
COc1ccc(N(C(=O)Cc2cccs2)C2C=CS(=O)(=O)C2)cc1 (centres undefined)	-2%
C/C(=N\Nc1ncnc2sc(C)c(C)c12)c1ccccn1	-5%
O=C1c2ccccc2CCC12N=NCC2c1ccc(Br)cc1 (centres undefined)	-3%
Cc1noc(-c2ccc(CSCCC(=O)O)cc2)c1NC(=O)OC(C)c1ccccc1Cl (centres undefined)	?
COc1ccc(C)cc1N(CC(=O)N1CCCCCC1)S(C)(=O)=O	8%
Cc1cc(C)n(CC(O)COCc2ccco2)n1 (centres undefined)	6%
O=C1CCN(S(=O)(=O)c2ccc(Br)cc2)CCN1	1%
COc1ccccc1CNC(=O)C1CCCN(S(=O)(=O)c2cccs2)C1 (centres undefined)	-2%
Clc1cccc(OCCN2CCNCC2)c1	-5%
CN(C(=O)c1cccc(S(=O)(=O)N2CCCCC2)c1)C1CCS(=O)(=O)C1 (centres undefined)	-6%
CC(/C=N/Nc1nc(C)cc(C)n1)=C\c1ccc(C(C)C)cc1	-4%
C[C@@H](C(=O)Nc1ccc2ccccc2c1)[C@@H]1C[C@@]1(C)[C@@H](NC(=O)c1cnccn1)c1ccccc1	-6%
O=C(Nc1cc(S(=O)(=O)N2CCOCC2)ccc1OCC(F)(F)F)c1ccc(N2CCCC2=O)cc1	?
O=C(NCCC1=CCCCC1)C1CCN(C(=O)c2ccc(Br)cc2)CC1	-7%
CN(C)C(/C=C/Nc1cccc([N+](=O)[O-])c1)=C(C#N)C#N	1%

Some of these compounds in order of the VDR inhibitor value, rising.
Structure	VDR inhibitor
C[C@@H](C(=O)Nc1ccc2ccccc2c1)[C@@H]1C[C@@]1(C)[C@@H](NC(=O)c1cnccn1)c1ccccc1	-6%
Clc1cccc(OCCN2CCNCC2)c1	-5%
CC(/C=N/Nc1nc(C)cc(C)n1)=C\c1ccc(C(C)C)cc1	-4%
COc1ccccc1CNC(=O)C1CCCN(S(=O)(=O)c2cccs2)C1 (centres undefined)	-2%
CN(C)C(/C=C/Nc1cccc([N+](=O)[O-])c1)=C(C#N)C#N	1%

Following part.
structure	VDR inhibitor
COc1cccc(CCc2nnc(CCC(=O)NCCc3cccc(C)n3)o2)c1	-13%
CN(C)C(C(=O)NC1CCCCC1)c1ccc(Cl)cc1 (centres undefined)	9%
O=C(NCC1CCCN1S(=O)(=O)c1cccs1)C(=O)Nc1ccc(F)cc1 (centres undefined)	-13%
N#Cc1c(-c2ccccc2Cl)cc(-c2ccccc2)nc1Br	?
O=c1cnn(-c2ccccc2)c(-c2ccccc2)c1	-6%
Cc1cccc(C(=O)NCC(=O)N2CCN(S(=O)(=O)c3cc(C)ccc3C)CC2)c1	-2%
O=C(CN1CCCCC1)N/N=C/c1cccc(Cl)c1	7%
COc1cc2c(cc1OC)C(C)N(CCc1ccc(Cl)cc1)CC2 (centres undefined)	1%
COc1ccc2nc3ccccc3[n+]([O-])c2c1	-7%
CS(=O)c1ccccc1-c1nc(-c2cc(C(F)(F)F)cc(C(F)(F)F)c2)no1 (centres undefined)	-11%
CS(=O)(=O)N1CCN(C(=O)c2ccc(Br)s2)CC1	9%
COc1ccc(N2CCN(C(=O)C3CC(=O)N(c4ccc(C)cc4)C3)CC2)cc1 (centres undefined)	-10%
COc1ccc(C(=O)NCc2nnc(SCC(=O)Nc3ccccc3)n2-c2ccc(F)cc2)cc1	-6%
Cc1ccccc1NC(=O)c1c([N+](=O)[O-])cnn1C	-21%
CN(C)c1ccc(/C=C2\N=C(c3ccc(Cl)c([N+](=O)[O-])c3)NC2=O)cc1	-10%
O=C(CN1C(=O)CSc2ccc(S(=O)(=O)N3CCOCC3)cc21)NCCCN1CCCCC1	12%&6%
CCOc1ccc(S(=O)(=O)NC2CC2)cc1	1%
Cn1c(C(=O)O)c(CC(=O)NCc2cccnc2)c2ccccc21	-2%
C[C@H](CO)N1C[C@H](C)[C@H](CN(C)CC2CC2)Oc2ccc(NC(=O)CCN3CCOCC3)cc2C1=O	-17%
O=C(Cc1ccccc1)Nc1c[nH]c(=O)[nH]c1=O	-7%
CCc1nnc(NS(=O)(=O)c2ccc(N=Cc3c(C)[nH]n(-c4ccc(Cl)cc4)c3=O)cc2)s1	-9%
CCOC(=O)N1CCN(C(=S)NC(=O)/C=C/c2ccc(C)cc2)CC1	-8%
Fc1ccc(Nc2nc(-c3ccc(F)cc3)c3c(n2)-c2ccccc2OC3)cc1	13%
O=C(COC(=O)c1cc(Cl)ccc1[N+](=O)[O-])NCc1ccc(Cl)cc1Cl	4%
Cc1cc(N/N=C/c2ccccc2O)c2ccccc2n1	10%
O=S(=O)(NCC1CCCO1)c1ccc(S(=O)(=O)N(Cc2ccccn2)C2CC2)cc1 (centres undefined)	-2%
Cc1ccc(-n2c(SCC(=O)NCc3ccc(F)cc3)nc3c([nH]c4ccccc43)c2=O)cc1	-9%
CN1CCc2c(sc3c2C(=O)NC(c2ccc(-c4ccc(Cl)cc4)o2)N3)C1 (centres undefined)	10%
CC(C)NC(=O)c1onc(CSc2cccc(Cl)c2)c1C(=O)O	-30%
O=C(O)CCc1ccc(-c2ccc(Cl)cc2)n1-c1cccc(C(F)(F)F)c1	?
O=C(NC1CCCCCC1)c1ccccc1-c1ccccc1	-6%
O=C(CSc1nnc(-c2ccco2)n1Cc1ccccc1)NC(=O)NCc1ccccc1	1%
CCOc1ccc(C)cc1S(=O)(=O)n1nc(C)cc1C	8%
COc1ccc(Nc2nc3ccccc3n3nnnc23)cc1	2%
Cc1nc(-c2ccc(Cl)cc2)sc1CCNC(=O)C(=O)Nc1ccccc1C#N	11%
O=C(Cn1c(SCC(=O)N2CCc3ccccc32)nc2ccccc21)NC1CCCC1	5%

The listing continues:
Molecule	VDR inhibitor
COCCNC(=O)c1ccc(-n2c(SCc3cccnc3)nc3ccccc3c2=O)cc1	-19%
Cc1cc(C=NCCO)c(C)n1-c1cc(Cl)ccc1Cl	-3%
COC(=O)C1C(=O)/C(=C(/C)N2CCCC2)C(=O)CC1(C)C (centres undefined)	12%
CC(C)c1ccc(OCC(O)Cn2cnc3ccccc32)cc1 (centres undefined)	-2%
C/C(=N\NC(=O)c1ccccc1O)c1ccc(NC(=O)c2ccccc2)cc1	-10%
CCOc1ccc(NC(=O)C2C3CCC4C(CCC32)C4(Cl)Cl)cc1 (centres undefined)	-2%
CCCC1=NN2C(=N)/C(=C\c3cc(C)n(-c4cccc(C)c4)c3C)C(=O)N=C2S1	-10%
CCN1CCN(CC(=O)N2CCCC(C(=O)c3ccc(Oc4ccccc4)cc3)C2)CC1 (centres undefined)	5%
O=C(CN1CCN(S(=O)(=O)c2ccc(F)cc2)CC1)NC1CC1	-14%
COc1cc(C2c3[nH]c4ccccc4c3C[C@H]3C(=O)N(C4CC4)CC(=O)N23)ccc1OC(C)C (some centres undefined)	15%
CCOc1ccccc1NC(C)C(=O)NC(=O)NC1CCCCC1 (centres undefined)	8%
O=C(c1ccccc1)N1N=C(C(F)(F)F)CC1(O)c1ccccc1 (centres undefined)	-10%
CCCc1cc(=O)[nH]c(SCC(=O)N2CCC(C(=O)OCC)CC2)n1	1%
COCCn1c(=O)c(CCc2ccccc2)nc2cnc(Oc3cccc(Cl)c3)nc21	-7%
CCc1nc(SCC(=O)Nc2nnc(C(C)C)s2)n[nH]1	-21%

Rewritten with each value named: part of the list above.
O=C(Nc1cc(S(=O)(=O)N2CCOCC2)ccc1OCC(F)(F)F)c1ccc(N2CCCC2=O)cc1
  VDR inhibitor = ?

COc1cc(C2c3[nH]c4ccccc4c3C[C@H]3C(=O)N(C4CC4)CC(=O)N23)ccc1OC(C)C (some centres undefined)
  VDR inhibitor = 15%

COc1cccc(-c2coc3c(C)c4oc(=O)c(CCC(=O)O)c(C)c4cc23)c1
  VDR inhibitor = ?

Cc1cc(C)n(CC(O)COCc2ccco2)n1 (centres undefined)
  VDR inhibitor = 6%

Carrying on:
Molecule	VDR inhibitor
COc1ccc(N2C(=O)C(Cl)=C(Nc3ccccc3O)C2=O)cc1	-28%
CCOc1cc(/C=N/NC(=O)C(=O)NCc2cccnc2)ccc1O	20%
O=C1CC(c2ccccc2)n2nc(NC(=O)c3cccs3)nc2N1 (centres undefined)	19%
O=C(Nc1nc(-c2cccnc2)cs1)c1cccc([N+](=O)[O-])c1	-8%
COCCn1c(C)cc(C(=O)COC(=O)c2c(C)nn(Cc3ccccc3)c2C)c1C	10%
O=C(CSc1nnc(-c2cccc(Br)c2)o1)N1CCNC1=O	?
COc1ccccc1C(=O)NNC(=O)c1ccc(NC(=O)C(C)C)cc1	-11%
C=CCN(C(=O)CC(NC(C)=O)c1ccccc1)c1nc(-c2ccc(S(C)(=O)=O)cc2)cs1 (centres undefined)	2%
O=C(Nc1ccc(Cl)c(Cl)c1)C1CC(=O)N(c2ccc(Br)cc2)C1 (centres undefined)	3%
CCOC(=O)C1=C(C)c2ccccc2OC1(CC)C(=O)OCC (centres undefined)	?
COc1ccc(Nc2nnc(SCC(=O)Nc3cc(C)on3)s2)cc1	-11%
O=c1c(Cl)c(NS(=O)(=O)c2ccccc2)cnn1-c1ccccc1	-18%
O=C1C2C(c3ccccc3)=NN(c3ccccc3)C2C(=O)N1c1ccccc1 (centres undefined)	6%
O=C(c1ccc(Cl)s1)N1CCCC1	-24%
CCn1cc([N+](=O)[O-])c(C(=O)Nc2ccc(Cn3nc(C)cc3C)cc2)n1	21%
CN(C)C(=O)COc1ccc2c3c(c(=O)oc2c1)CCCC3	-3%
OC(COc1cccc2ccccc12)CN1CCOCC1 (centres undefined)	-23%
Cn1c(COc2ccc3ccccc3c2)nnc1SCC(=O)O	-1%
COc1ccc(CN2CCNC(=O)C2CC(=O)N(C)CC2CCOCC2)cc1C (centres undefined)	9%
O=C(O)c1ccccc1C(=O)Nc1cc(-c2ccccc2)[nH]n1	-2%
CCN(CC)CCOC(=O)C1(C2CCCCC2)CCCCC1	-14%&-9%&-6%
CCN(CCC(=O)Nc1cc(OC)cc(OC)c1)Cc1ccccc1	-4%
COc1ccc(CNS(=O)(=O)c2cn(C)c(=O)n(C)c2=O)cc1	9%
Cc1ccc(NC(=O)c2ccc(=O)[nH]n2)cc1S(=O)(=O)Nc1ccc(SC(F)F)cc1	-13%
O=C1NCCOC(=O)[C@H](Cc2ccc(F)cc2)C/C=C\C[C@@H]1CC(=O)N(CCO)Cc1ccccc1	3%
CN(C(=O)COc1ccccc1C(=O)NCCc1ccccc1)c1ccccc1	15%
COc1ccc(/C(N)=N/OC(=O)CCCc2ccccc2)cc1	0%
O=C(NCCc1ccccc1Cl)C1CCN(c2nc3ccccc3nc2C(F)(F)F)CC1	12%
CC(C)(C)OC(=O)N1CCN(C(=O)c2nc[nH]c2C(=O)N2CCN(C(=O)OC(C)(C)C)CC2)CC1	3%
Cc1ccc(-c2nc3sc4c(c3c(=O)n2N)CCCC4)cc1	-11%
NC(=O)C1=C[C@H](c2ccc(C(F)(F)F)cc2)C[C@H](OCc2ccc(CO)cc2)O1	1%
CCCC(=O)Nc1nnc(SCC(=O)N2C(C)CCCC2C)s1 (centres undefined)	-4%
COc1ccc(NC(=O)CCC(=O)Nc2nnc(C(F)(F)F)s2)c(OC)c1	-7%
C=CCn1c(SCC(=O)/C(C#N)=C(\C)N)nc2sc(C)c(C)c2c1=O	3%
COc1ccc(CC(=O)O/N=C(\N)c2ccc(Br)cc2)cc1OC	14%
O=C(NNc1ncnc2sccc12)c1ccc(Cl)cc1	-8%
CCOc1ccc(S(=O)(=O)N2CCCCC2)cc1NC(=O)CN1C(=O)NC(CC)(c2ccccc2)C1=O (centres undefined)	-6%
CN(C)Cc1cc(C(C)(C)C)cc(C(C)(C)C)c1O	2%
C=CCn1c(SCc2cccc(F)c2)nc2cc(C(=O)N3CCC(C(N)=O)CC3)ccc2c1=O	-12%
N#Cc1nc(Cc2cccc3ccccc23)oc1NCCN1CCOCC1	-5%
O=C1/C(=C\c2cccnc2)SC(=S)N1C1CCS(=O)(=O)C1 (centres undefined)	-8%
CC(C)(C)OC(=O)NNC(=S)NC1CCCCC1	21%
Cc1c(CC(=O)O)c(=O)oc2cc3oc4c(c3cc12)CCCC4	-8%
Cn1c(SCC(=O)c2ccc(O)cc2O)nnc1-c1ccccc1	-8%
COc1ccc(S(=O)(=O)NCC(c2ccco2)N2CCc3ccccc32)cc1 (centres undefined)	6%
CCc1ccc(NC(=O)C2CCN(C(=O)[C@@H]3Cc4ccccc4CN3)CC2)cc1	6%
CC(=O)N(C)c1ccc(N=Nc2c(C)[nH]n(-c3ccccc3)c2=O)cc1	-14%

A portion of the library. The share of hits here may be higher or lower than overall.
